Methyltransferases: Primary Screen for Target Class Profiling of Small Molecule Inhibitors of Methyltransferases; purified enzyme, MTase-Glo SAH luminescence; stronger effect = lower value; calls only at 40 µM; hit rate 3.9% among 25,000; AID 1745853, 2022; active = -50% or lower on at least one of six enzymes; inconclusive = the cases between; inactive = as a rule above -30% on all six;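 also: enzymes were COMT GAMT GNMT HNMT NNMT and PNMT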
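Each enzyme was reacted with SAM and its substrate, with compounds tested once at 40 uM; SAH formed was read by MTase-Glo luminescence.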
Calls only; i = inactive; ? = inconclusive; + = active, no number. % is scaled to controls: 0 for no effect and ±100 for the full control effect. Some of the compounds tested, so the mix of outcomes need not match the whole.

SMILES	Methyltransferases
CC(=O)Nc1c2n(c3ccccc13)CC(C)(C(=O)NC1CCCC1)N(Cc1ccccc1C)C2=O (stereo unspecified)	i
COc1ccc(CNC(=O)c2ccc3nnc(C4CCOCC4)n3c2)cc1	i
CC(Cn1cncn1)Nc1ccc(-c2nc(Cc3ccc(F)cc3)no2)cn1 (stereo unspecified)	i
O=C(Cn1nc2n(Cc3ccc(F)cc3)c(=O)c3ccccc3n2c1=O)c1cccc(Cl)c1	i
CCC(C)NC(=O)c1ccc2c(=O)nc3c(-c4cccc(F)c4)n[nH]n3c2c1 (stereo unspecified)	i
NCc1ccc(Oc2ncnc3ccccc23)cc1	i
C/C=C(\C)C(=O)O[C@H]1[C@H](O)[C@]2(COC(C)=O)[C@H](O)C[C@]3(C)C(=CCC4[C@@]5(C)CC[C@H](O[C@@H]6O[C@H](C(=O)O)[C@@H](O[C@@H]7O[C@H](CO)[C@@H](O)[C@H](O)[C@H]7O)[C@H](O)[C@H]6O[C@@H]6O[C@H](CO)[C@@H](O)[C@H](O)[C@H]6O)[C@](C)(CO)C5CC[C@]43C)[C@@H]2CC1(C)C (stereo partly specified)	i
C=C(C(=O)O)[C@@H]1CC[C@@]2(C)CC[C@@H](O)C(=C)C2C1 (stereo partly specified)	i
CC1CCCCC1NC(=O)CCn1ccc2cc(S(=O)(=O)N3CCCC3)ccc21 (stereo unspecified)	i
CCOc1cc(C)c(CN2CCCC(O)(CN(C)C)C2)cc1C(C)C (stereo unspecified)	i
CN1CCOc2c(C(=O)NCc3cnn(C)c3)cc(-c3ccc([S+](C)(=O)[O-])cc3)cc21	i
CCOCC(=O)N[C@@H]1CN(S(C)(=O)=O)C[C@H]1CN(C)C	i
CCCn1c(=O)c2cc(F)ccc2n2c(SCc3ccc(C)cc3)nnc12	i
COc1ccc(CNC(=O)C[C@@H]2O[C@H](CNCc3cccc(Cl)c3)[C@@H](O)[C@H]2O)cc1	i
CCNC(=O)N1CCC[C@@H](O)[C@H](NC(=O)c2ccc(OCc3c(C)noc3C)cc2)C1	i
COc1ccc(-c2cc3n(n2)CC(C)(C(=O)NCc2ccccc2)N(c2cccc(Cl)c2C)C3=O)cc1 (stereo unspecified)	i
CC(C)NC(=O)c1ccc2c(=O)n(Cc3ccccc3)c3nn(Cc4ccccc4)c(=O)n3c2c1	i
CC1(C(=O)NC2CCCCC2)Cn2c(ccc2-c2ccco2)C(=O)N1Cc1ccc2c(c1)OCO2 (stereo unspecified)	i
COC(=O)CNC(=O)c1cn2cc(-c3cccc(C(F)(F)F)c3)sc2n1	i
C=Cc1ccc(CSc2nnc3n(CCC)c(=O)c4ccc(Cl)cc4n23)cc1	i
COc1ccc(OC)c(CNC(=O)c2cc3n(n2)CC(C)(C(=O)NCc2ccc(C)cc2)N(C)C3=O)c1 (stereo unspecified)	i
CC(C)Cn1c(=O)c2ccc(Cl)cc2n2c(SCC(=O)Nc3ccccc3Cl)nnc12	i
CC(C)CCNC(=O)C1(C)Cn2c(ccc2-c2ccco2)C(=O)N1Cc1ccc2c(c1)OCO2 (stereo unspecified)	i
C[C@]1(CO)[C@H]2Cc3sc(NC(=O)c4ccco4)nc3[C@@H](CC(=O)NC3CCCC3)[C@]2(C)CC[C@H]1O	i
CCOc1ccc(N2C(=O)c3cc(-c4ccc(OC)cc4)nn3CC2(C)C(=O)NCc2ccccc2)cc1 (stereo unspecified)	i

7 entries already listed, ordered by number of heavy atoms, low to high:
SMILES	Methyltransferases
CCOCC(=O)N[C@@H]1CN(S(C)(=O)=O)C[C@H]1CN(C)C	i
CC(Cn1cncn1)Nc1ccc(-c2nc(Cc3ccc(F)cc3)no2)cn1 (stereo unspecified)	i
COc1ccc(CNC(=O)C[C@@H]2O[C@H](CNCc3cccc(Cl)c3)[C@@H](O)[C@H]2O)cc1	i
CN1CCOc2c(C(=O)NCc3cnn(C)c3)cc(-c3ccc([S+](C)(=O)[O-])cc3)cc21	i
C[C@]1(CO)[C@H]2Cc3sc(NC(=O)c4ccco4)nc3[C@@H](CC(=O)NC3CCCC3)[C@]2(C)CC[C@H]1O	i
COc1ccc(-c2cc3n(n2)CC(C)(C(=O)NCc2ccccc2)N(c2cccc(Cl)c2C)C3=O)cc1 (stereo unspecified)	i
C/C=C(\C)C(=O)O[C@H]1[C@H](O)[C@]2(COC(C)=O)[C@H](O)C[C@]3(C)C(=CCC4[C@@]5(C)CC[C@H](O[C@@H]6O[C@H](C(=O)O)[C@@H](O[C@@H]7O[C@H](CO)[C@@H](O)[C@H](O)[C@H]7O)[C@H](O)[C@H]6O[C@@H]6O[C@H](CO)[C@@H](O)[C@H](O)[C@H]6O)[C@](C)(CO)C5CC[C@]43C)[C@@H]2CC1(C)C (stereo partly specified)	i

Continuation.
SMILES	Methyltransferases
CC(=O)Nc1c2n(c3ccc(F)cc13)CC(C)(C(=O)NC1CCCC1)N(c1ccc(F)cc1)C2=O (stereo unspecified)	i
O=C(Cn1ccc2cc(S(=O)(=O)N3CCCCC3)ccc21)NCCCN1CCCC1	i
COc1ccc(CC(=O)N(C)C2CCc3ccccc3C2)cc1 (stereo unspecified)	i
CC1C(=O)N(C)C(=O)c2nc[nH]c21 (stereo unspecified)	i
Cc1nnc2n1CCC(N(C)C(=O)NC1CCCCC1)CC2 (stereo unspecified)	i
COc1cc(C2Oc3c(OC)cc(/C=C/C(=O)OC[C@H]4O[C@@H](OC(C)(C)C(=O)O)[C@H](O)[C@@H](O)[C@@H]4O)cc3C2CO)ccc1O (stereo partly specified)	+
CC(C)CCn1c(=O)c2ccc(C(=O)NC3CCCCC3)cc2n2c(=O)n(CC(=O)NC(C)C)nc12	i
CCCn1c(=O)c2ccc(C(=O)NC(C)CC)cc2n2c(=O)n(CC(=O)Nc3ccc(CC)cc3)nc12 (stereo unspecified)	i
COCC1CN(C(C)=O)CC12CCN(S(=O)(=O)c1ccc(OC)cc1)CC2 (stereo unspecified)	i
CC(C)Cn1c(=O)c2ccccc2n2c(SCc3ccccc3Cl)nnc12	i
COc1cc2c(cc1O)C(c1ccc(O)cc1)C(C)C(C)C2 (stereo unspecified)	?
Cc1sc2ncn(CC(=O)NCc3ccc4c(c3)OCO4)c(=O)c2c1S(=O)(=O)N1CCC(C)CC1	i
CC(=O)NC1CCN(C(=O)c2coc(COc3cccc(C(F)(F)F)c3)n2)C1 (stereo unspecified)	i
COc1ccccc1CNC(=O)C1c2c(n(C)c3ccccc23)SCC(=O)N1Cc1ccccc1Cl (stereo unspecified)	i
CC1(C(=O)NC2CCCCCC2)Cc2ccccc2C(=O)N1Cc1cccnc1 (stereo unspecified)	i
Cc1ccc(NC(=O)CN(C)S(=O)(=O)c2ccc3[nH]c4c(c3c2)CCCC4)c(Cl)c1	i
CCc1cccc(N2C(=O)c3ccc(-c4ccco4)n3CC2(C)C(=O)NC2CCCC2)c1 (stereo unspecified)	i
COc1ccc(-c2cc3n(n2)CC(C)(C(=O)NC2CCCCC2)N(C2CCCC2)C3=O)cc1 (stereo unspecified)	i
Cc1ccc(NS(=O)(=O)c2cc3c(cc2Cl)n(C)c(=O)n3C)cc1F	i
CC(C)S(=O)(=O)N[C@H]1CCOC[C@@H]1c1ccc(-c2ccc(C#N)s2)cc1	i
O=c1c2ccccc2n2c(-c3ccc(F)c(F)c3)nnc2n1Cc1ccc(F)cc1	i
COCC(=O)N1CC(C(=O)NCCc2ccc(OC)cc2)CC(c2ccc(F)c(C)c2)C1 (stereo unspecified)	i
CC(C)NC(=O)N(C1CCOCC1)C1CNC1	i
CCCc1cc2c(-c3ccccc3)cc(=O)oc2cc1OCc1cc(C(=O)OC)oc1C	i
CCOC(=O)Cn1c(=O)oc2cc(S(=O)(=O)NCCc3ccc(OCC)c(OCC)c3)ccc21	i

The closing 4 entries of the section above come first, to join the parts.
SMILES	Methyltransferases
COCC(=O)N1CC(C(=O)NCCc2ccc(OC)cc2)CC(c2ccc(F)c(C)c2)C1 (stereo unspecified)	i
CC(C)NC(=O)N(C1CCOCC1)C1CNC1	i
CCCc1cc2c(-c3ccccc3)cc(=O)oc2cc1OCc1cc(C(=O)OC)oc1C	i
CCOC(=O)Cn1c(=O)oc2cc(S(=O)(=O)NCCc3ccc(OCC)c(OCC)c3)ccc21	i
C=CCn1c(CN2CCC3(CC(=O)NC3=O)C2)nc2ccccc21 (stereo unspecified)	?
CCCn1c(=O)c2ccc(C(=O)NC(C)CC)cc2n2c(=O)n(CC(=O)Nc3ccc(C)cc3)nc12 (stereo unspecified)	i
COc1cccc2c1OCCCN(c1cc(C3CC(O)C3)nc(N)n1)C2 (stereo unspecified)	+
CCC1c2nccn2CCCN1C(=O)Cn1c(=O)oc2ccccc21 (stereo unspecified)	i
COCCn1c(=O)c2c(n1Cc1ccccc1)CN(C(=O)Cc1cccc(F)c1)CC2	i
CCc1cccc(CC)c1NC(=O)c1nn(C)c2c1CCc1cnc(Nc3ccc(C(=O)NC4CCN(C)CC4)cc3OC(F)(F)F)nc1-2	i
CCn1nc(C(C)C)cc1C(=O)N1C[C@@H]2CCN(C)C[C@]2(C(=O)O)C1	i
COc1ccccc1CNC(=O)C1(C)Cn2c(cc3ccccc32)C(=O)N1Cc1cccc(OC)c1OC (stereo unspecified)	i
C[C@@H]1C(=O)O[C@H]2CC34[C@H]5C[C@@H](C(C)(C)C)C36[C@@H](OC(=O)[C@@H]6O)OC4(C(=O)O5)[C@]21O (stereo partly specified)	i
COC(=O)c1cc2n(n1)CC(C)(C(=O)NC1CCCC1)N(c1ccccc1C)C2=O (stereo unspecified)	i
COc1ccc(CNC(=O)c2ncn3c2C(=O)N(C2CC2)C(C)(C(=O)NCc2ccc(OC)cc2)C3)cc1 (stereo unspecified)	i
CCCn1c(=O)c2ccc(Cl)cc2n2c(SCC(=O)Nc3ccccc3Cl)nnc12	i
Cc1ccc(C(=O)Nc2ccc(Oc3cc4cnn(C)c4cc3-c3cn[nH]c3)c(F)c2)c(=O)n1-c1ccc(F)cc1	?
CN1CCN(c2nc3c(c(=O)[nH]2)CCN(Cc2ccc4[nH]ccc4c2)CC3)CC1	i
CCNC(=O)[C@@H]1C[C@H](NC(=O)CCc2ccccc2)CN1Cc1cnc[nH]1	i
COC1CCC12CCN(Cc1ccc(C)o1)CC2 (stereo unspecified)	i
Cc1ccccc1NC(=O)CSc1nnc2n(CC(C)C)c(=O)c3ccc(C(=O)NC(C)C)cc3n12	i
COC1CCOC2(CCN(C(=O)c3cc(-c4ccccc4)n[nH]3)CC2)C1 (stereo unspecified)	i
CC(C)CCn1c(=O)c2ccccc2n2c(SCC(=O)Nc3ccc(Cl)cc3)nnc12	i
O=C(c1ccccc1F)N1CCn2ncc(C(=O)N3CCOCC3)c2C1	i
COc1ccccc1CNC(=O)C1(C)Cn2nc(-c3ccccc3)cc2C(=O)N1CCc1ccc(SC)cc1 (stereo unspecified)	i
COc1ccc(Cn2c(=O)c3ccccc3n3c(-c4ccc(Br)cc4)nnc23)cc1	i
CCC(C)(O)C(O)C(=O)OCc1ccc(O[C@@H]2O[C@H](CO)[C@@H](O)[C@H](O)[C@H]2O)cc1 (stereo partly specified)	i
Cc1ccc(CN2C(=O)c3cc4sccc4n3CC2(C)C(=O)NC2CCCC2)cc1 (stereo unspecified)	i
CN1CCCCCCN(C(=O)Cc2c[nH]c3ccccc23)[C@H]2CCC[C@H]2C1=O	i
More structures follow.
SMILES	Methyltransferases
CN1C(=O)c2cc(NC(=O)c3cccc(N(C)C)c3)ccc2N2CCN=C12	i
COc1ccc2cc3n(c2c1)CC(C)(C(=O)NC1CCCCCC1)N(CC1CCCO1)C3=O (stereo unspecified)	i
COc1cc2c(c(OC)c1OC)-c1ccc(OC)c(=O)cc1[C@@H](NC(C)=O)CC2	i
COc1ccc(O)c(CN2CCCC(Nc3ccc(F)cc3)C2)c1 (stereo unspecified)	i
Cc1cnc(-c2ccccc2)n1CC1CCN(S(=O)(=O)Cc2ccccc2F)CC1	i
COc1ccc(N2CCN(CCCNC(=O)CCc3nnc4n(CC(C)C)c(=O)c5ccccc5n34)CC2)cc1	i
COc1ccc(N2C(=O)c3cc4sccc4n3CC2(C)C(=O)NC2CCCCCCC2)cc1OC (stereo unspecified)	i
Cn1c(=O)c2ccc(C(=O)NC3CCCCC3)cc2n2c(=O)n(CC(=O)NC3CCCCC3)nc12	i
CCCn1c(=O)c2ccc(C(=O)NC3CCCC3)cc2n2c(=O)n(CC(=O)NC(C)C)nc12	i
COc1cccn(CC(=O)N2CCN(c3ccccc3C#N)CC2)c1=O	i
O=C(O)Cc1cn(C2OCC(O)C(O)C2O[C@@H]2O[C@H](CO)[C@@H](O)[C@H](O)[C@H]2O)c2ccccc12 (stereo partly specified)	i
CCC(CC)C(=O)NC[C@H]1O[C@@H](CC(=O)N2CCC(C)CC2)[C@H](O)[C@@H]1O	i
Cc1cc(C)c2[nH]c(CN3CCC(N)C3)cc(=O)c2c1 (stereo unspecified)	i
CCCN1C(=O)c2c(C(=O)Nc3cc(F)ccc3F)ncn2CC1(C)C(=O)NCc1ccc(C)cc1 (stereo unspecified)	i
COc1cc2c(=O)[nH]c3c(C(=O)NCc4ccc5c(c4)OCO5)sc(=S)n3c2cc1OC	i
COc1ccccc1CNC(=O)C1(C)Cn2nc(-c3ccccc3)cc2C(=O)N1Cc1ccccc1Cl (stereo unspecified)	i
COc1ccccc1CNC(=O)C1c2c(n(C)c3ccccc23)SCC(=O)N1c1cc(Cl)ccc1OC (stereo unspecified)	i
COc1ccc(Cl)cc1C(=O)N(C)C1CCc2nn(C)c(=O)n2CC1 (stereo unspecified)	i
CCS(=O)(=O)Nc1ccc(C2(C(=O)NCc3cccc(Cl)c3)CCC2)cc1	i
CC1CCC(NC(=O)C2(C)Cn3c(cc4sccc43)C(=O)N2Cc2ccccn2)CC1 (stereo unspecified)	i
COc1ccc(Cn2c(=O)c3ccccc3n3c(-c4ccc(F)c(F)c4)nnc23)cc1	i
CCN(CC)CCNC(=O)c1cc2n(n1)CC(C)(C(=O)NC1CCCCC1)N(C)C2=O (stereo unspecified)	i
Cc1cc(C)c(S(=O)(=O)NCCc2n[nH]c(Cc3ccc(F)cc3)n2)cc1C	i
CCCOc1ccc(CN2C(=O)c3cc4ccccc4n3CC2(C)C(=O)NC2CCCCC2)cc1 (stereo unspecified)	i
CN(C)CC(O)c1cc2n(n1)CCN(C(=O)c1cc(=O)[nH]c(=O)[nH]1)C2 (stereo unspecified)	i

Source: PubChem BioAssay
